FGF22 binding = binders of recombinant human FGF22 by thermal shift | calls only at 9.99 µM | SYPRO orange fluorescence; percent of sucrose octasulfate shift, DMSO zero | actives 1.5% (n = 340,000);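 active means melting point raised past a set limit in the mean and every replicate; inconclusive means no clear call; three in four hits are not shown here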
Target sequence (Q9HCT0 whole entry, looked up): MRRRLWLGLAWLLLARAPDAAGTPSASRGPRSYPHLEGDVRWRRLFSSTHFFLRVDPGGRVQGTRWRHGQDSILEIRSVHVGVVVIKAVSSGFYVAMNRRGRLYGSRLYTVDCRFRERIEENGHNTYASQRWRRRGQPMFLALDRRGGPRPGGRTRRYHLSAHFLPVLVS
UCH37 inh = inhibitors of human deubiquitinating enzyme UCH37 | Q9Y5K5 | purified proteasome/UCH37, Ub-AMC cleavage fluorescence | inhibition, % (no concentration beside the values) | actives 0.33% (n = 330,000);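 active means mean of two replicates above 20%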;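 further: 0% = compound-free wells with enzyme and 100% = wells lacking proteasome; stock transfer was 100 nL into about 20 µL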
Target sequence (Q9Y5K5 whole entry, looked up): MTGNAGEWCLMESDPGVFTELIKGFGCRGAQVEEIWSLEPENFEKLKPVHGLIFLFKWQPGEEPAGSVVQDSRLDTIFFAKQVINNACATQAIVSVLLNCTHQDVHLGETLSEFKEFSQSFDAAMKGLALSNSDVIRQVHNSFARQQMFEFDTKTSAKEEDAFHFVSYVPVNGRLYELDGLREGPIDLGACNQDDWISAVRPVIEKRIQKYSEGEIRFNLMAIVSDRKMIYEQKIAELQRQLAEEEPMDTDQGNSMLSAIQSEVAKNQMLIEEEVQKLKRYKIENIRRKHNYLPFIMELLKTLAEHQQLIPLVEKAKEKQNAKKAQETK
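Assay system: Proteasome-bound UCH37. Buffer or medium: pH 7.4 Tris-HCl (50 mM) with ovalbumin, ATP-MgCl2, DTT. Incubation: 30 min preincubation with enzyme, 25 min cleavage at room temperature. Measured by: fluorescence, ex 355 nm, em 460 nm. Read-out basis: percent inhibition. Control set: wells without proteasome as full block, compound-free enzyme plus substrate as uninhibited.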
RanGTP-Impb inh = inhibitors of RanGTP-importin-beta interaction, primary screen, biochemical, FRET, CFP-Ran, YFP-importin-beta, homogeneous | actives 1.1% (n = 300,000) | cell-free CFP-Ran/YFP-importin-beta FRET ratio | inhibition, % (test concentration not listed) | AID 2216;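 active means most replicates above 15%; inconclusive means exactly half above 15%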;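 further: 0% = DMSO wells and 100% = Ran loaded with GDP instead of GTP; wells of about 40 µL received 100 nL stock; the first replicate is given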
Vif A3G = inhibitors of Vif binding to APOBEC3G peptide, primary screen, biochemical, TR-FRET, GST-Vif 1-94, biotin-A3G peptide, dose response retest (AID 1117319); TR-FRET GST-Vif / biotin-A3G peptide binding; higher % means a stronger effect; test concentration not given here; strong numbers were not always called active; inhibition, %, or IC50 in µM where a hit was titrated; actives 0.57% (n = 260,000);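 active means above the screen mean plus three standard deviations and confirmed in dose response; inconclusive means results disagree or hit not tested in dose response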;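 further: Vif residues 1-94 fused to GST binding biotinylated APOBEC3G peptide 110-148; 0% = full assay without inhibitor and 100% = GST in place of GST-Vif; retest series ran down from 100 µM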
AF4-AF9 inh = blocks AF4 peptide binding to human AF9; actives 0.47% (n = 350,000); AlphaScreen, biotin-AF4 peptide binding to FLAG-AF9; inhibition, % at 10 µM; P42568;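 active means every replicate reaching a set inhibition limit, whatever the replicate mean, cut at about 25% in these data; inconclusive means mean inhibition reaches that limit but some replicates miss it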;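 further: 0% = plate neutral control median and 100% = total signal loss; the record names both 10 and 1 µM as test concentration; the first replicate is given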
Ecoli growth = E. coli growth inhibition; actives 0.21% (n = 330,000); OD600 absorbance (concentration not given with the values); AID 1053175; Escherichia coli growth, OD600, 23 h; stronger effect = lower value;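 active means OD600 absorbance below the run mean of sample wells minus 3.6 SD, in any replicate, cut at about 0.56 in these data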;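 further: stock transfer was 300 nL into about 60 µL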
HNF4A DNA FP = change in binding of human HNF4 alpha to DNA; HNF4a-FITC DNA binding, fluorescence polarization, 1 h; activity change, % at 10 µM; actives 0.3% (n = 360,000); P41235; in the data active means activity change above about 30%, passing the limit was not always enough;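 further: controls were the assay level and a saturating level of protein; the project sought stronger binding though the title names inhibitors; some compounds called inactive have numbers as strong as hits; positive values seem to mean higher polarization but the record does not say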
Target sequence (P41235 whole entry, looked up): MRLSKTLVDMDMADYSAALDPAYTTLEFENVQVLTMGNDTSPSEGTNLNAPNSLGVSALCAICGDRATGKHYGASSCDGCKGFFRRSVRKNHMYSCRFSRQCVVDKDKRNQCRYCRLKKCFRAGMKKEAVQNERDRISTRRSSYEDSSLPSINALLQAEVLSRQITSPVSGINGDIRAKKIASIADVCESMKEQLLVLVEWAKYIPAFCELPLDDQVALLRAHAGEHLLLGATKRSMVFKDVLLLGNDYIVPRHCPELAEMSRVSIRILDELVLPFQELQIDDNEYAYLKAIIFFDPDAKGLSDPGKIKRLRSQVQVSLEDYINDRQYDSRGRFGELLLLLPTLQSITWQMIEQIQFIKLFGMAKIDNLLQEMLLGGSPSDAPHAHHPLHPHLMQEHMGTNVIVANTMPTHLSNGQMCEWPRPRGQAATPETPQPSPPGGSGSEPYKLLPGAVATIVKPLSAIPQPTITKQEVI
Starred values were filed as active, the others as inactive; i = inactive; ? = inconclusive; · = not tested or not shown; + = active, no number; & = joins results of further samples. An excerpt; the hit share may differ from the screen's.

Every second line gives: FGF22 binding	UCH37 inh	RanGTP-Impb inh	Vif A3G	AF4-AF9 inh	Ecoli growth	HNF4A DNA FP
O=C(CCC1N=C2c3ccccc3N=C(SCC(=O)NCC3CCCO3)N2C1=O)NCc1ccc(F)cc1 (stereo unspecified)
    i	-109.0	-1.4	·	-1.5	0.706	-5.7
C[C@@H]1CN([C@@H](C)CO)C(=O)c2cc(/C=C/c3ccccc3)cnc2O[C@@H]1CN(C)S(=O)(=O)c1ccc(F)cc1
    i	·	·	3.0%	1.5&8.7	·	-2.6
CCOc1ccc([N+](=O)[O-])c(N)c1
    ·	4.6	1.5	-14.5%	·	0.679	1.4
CC(C)NC(=S)Nc1ccc2nc3n(c(=O)c2c1)CCCCC3
    i	0.5	8.7	-2.5%	1.0	0.605	-1.2
COc1ccc(-c2nc3ccc([N+](=O)[O-])cc3[nH]2)cc1
    +	4.5	7.1	-2.8%	4.0	0.611	1.4
COCCC(=O)N1CCC(Oc2ccc(C(=O)N3CCCC(COC)C3)cc2)CC1 (stereo unspecified)
    i	-0.8	?	2.9%	0.0	0.685	-3.4
COC(=O)c1ccc(C2SCC(=O)N2Cc2ccccc2)cc1 (stereo unspecified)
    ·	0.8	2.4	-13.7%	·	0.658	3.7
OC(c1ccccn1)c1c[nH]c2ccccc12 (stereo unspecified)
    ·	0.4	5.9	5.6%	·	0.712	-0.6
C=CCn1c(SCc2cccnc2)nnc1-c1ccncc1
    ·	7.5	·	9.3%	·	0.682	-0.2
CCOC(=O)CNC(=O)c1ccc2[nH]c3ccccc3c2c1
    i	-39.5	·	·	-0.1	0.681	-0.6

Records above that bear a hit mark in FGF22 binding.
compound | FGF22 binding | UCH37 inh | RanGTP-Impb inh | Vif A3G | AF4-AF9 inh | HNF4A DNA FP
COc1ccc(-c2nc3ccc([N+](=O)[O-])cc3[nH]2)cc1 | + | 4.5 | 7.1 | -2.8% | 4.0 | 1.4

Next structures:
Every second line gives: FGF22 binding	UCH37 inh	RanGTP-Impb inh	Vif A3G	AF4-AF9 inh	Ecoli growth	HNF4A DNA FP
NS(=O)(=O)c1ccc(CNC(=O)Cc2ccccc2[N+](=O)[O-])cc1
    i	2.4	0.0	-6.5%	-13.2	0.699	1.3
COc1ccc(NC(=O)CCc2nnc3ccc(NCc4ccc5c(c4)OCO5)nn23)cc1
    i	1.6	3.4	5.6%	-1.5	0.722	3.4
CCCCN(c1ccccc1)S(=O)(=O)c1cccc(C(=O)Nc2c(C)n(C)n(-c3ccccc3)c2=O)c1
    i	2.0	·	·	-3.5	0.668	-1.6
CC(=O)NNC(=S)NCCc1ccccc1
    i	4.3	-1.4	-2.7%	-2.0	0.713	0.9
COC(=O)c1sc2ccccc2c1C(=O)OC
    ·	-1.6	1.6	-5.8%	·	0.673	3.9
Cc1cccc(C)c1N1CCN(S(=O)(=O)c2ccc(F)cc2)CC1
    ·	3.2	18.9*	8.0%	·	0.755	-3.3
O=S(=O)(c1ccc(Br)cc1F)N1CC[C@H](O)C1
    i	·	·	·	-3.1	·	1.4
CCCC(=O)N1CCC1(C)C(=O)NS(=O)(=O)c1ccc(C)cc1 (stereo unspecified)
    i	·	·	·	-5.0	·	3.4
CC1CCN(c2ccccc2NC(=S)NC(=O)c2ccc(-c3cccc([N+](=O)[O-])c3)o2)CC1
    ·	0.7	-4.8	5.4%	·	0.763	3.3
COc1cccc(NC(=O)N(C)C[C@@H]2OCc3cnnn3CCCC(=O)N([C@@H](C)CO)C[C@H]2C)c1
    i	·	·	-3.0%	3.5&-0.7	·	-3.1
CCOC(=O)Cn1c(=O)c2c(nc3n2CC(C)CN3Cc2ccccc2)n(C)c1=O (stereo unspecified)
    i	2.2	1.3	-1.1%	-1.7	0.651	2.4
COCCNC(=O)c1ccc(N2CC3CC(C2)c2cccc(=O)n2C3)c(NC(=O)c2c(F)cccc2F)c1 (stereo unspecified)
    i	3.4	1.3	·	-0.2	0.705	-3.9
Cc1cccc(OCCSc2nc(N)cc(N)n2)c1
    i	4.0	-1.1	·	-6.5	0.696	0.0
CC(C)N(Cc1ccccc1)C(=O)c1ccc2nsnc2c1
    i	0.7	4.0	-0.6%	-1.9	0.659	-1.9
Cc1nn(-c2ccccc2)c2c1C(=O)NC(=O)C(C)(C)C2
    ·	1.4	-3.5	0.1%	·	0.74	0.8
COc1cccc(NC(=O)COC(=O)c2c(F)cccc2Cl)c1
    i	-0.6	3.9	-4.0%	-0.1	0.649	-2.5
COc1ccccc1N(O)C1CC(=O)N(c2ccc(Br)cc2)C1=O (stereo unspecified)
    ·	4.5	-2.0	28.5%	·	0.72	1.4
O=C(Nc1ccc(Br)cc1)C1OCCc2ccccc21 (stereo unspecified)
    i	0.7	-1.3	-5.1%	-4.0	0.647	0.5
Cc1cccc(C(=O)N2CCCC(Nc3ccc(F)c(F)c3)C2)n1 (stereo unspecified)
    i	1.3	2.1	·	-0.8	0.674	-2.3
CCSc1nc2ccccc2n1Cc1ccccc1F
    ·	-0.5	1.3	-1.3%	·	0.683	-1.4
COc1ccccc1OCc1ccc(C(=O)NC(C)(C)C)o1
    ·	-1.3	-1.6	8.8%	·	0.68	-1.7
COc1ccc(/C=C/C(=O)NC2CCCCCCC2)cc1S(=O)(=O)N1CCOCC1
    i	-1.4	-2.3	18.8%	1.1	0.709	1.6
CCCCCCC(=O)Nc1ccc(Br)cn1
    i	3.5	-2.4	22.8%	-2.1	0.67	1.5
COc1ccc(N2CC(C(=O)Nc3nnc(C4CCCCC4)s3)CC2=O)cc1 (stereo unspecified)
    i	6.6	?	·	-3.9	0.639	6.6
O=C(CCCc1ccccc1)Nc1cccnc1Cl
    i	-1.4	?	-7.9%	-12.1	0.662	2.2
Cc1ccc(N(Cc2ccccc2)C(=O)c2cccc(S(=O)(=O)N3CCN(C)CC3)c2)cc1
    i	-0.6	4.8	5.3%	-34.1	0.621	0.0
Cc1ccc(N2C(=O)NC(NS(=O)(=O)c3ccccc3)(C(F)(F)F)C2=O)cc1C (stereo unspecified)
    i	1.3	-0.1	-1.1%	0.8	0.706	0.7
CC(C)C1NC(C(=O)O)Cc2c1[nH]c1ccccc21 (stereo unspecified)
    i	·	7.6	·	6.0	·	1.9
COc1cccc(NC(=O)C2CCN(C(=O)[C@@H]3Cc4ccccc4CN3)CC2)c1
    i	3.5	-0.5	0.8%	-3.9	0.714	-0.1
CC1CN(C(=O)c2ccc(COc3ccc(C(C)C)cc3)o2)CC(C)O1 (stereo unspecified)
    ·	2.0	·	·	0.3	0.657	1.1
CSc1nc2c(c(=O)[nH]c(=O)n2C)n1C/C=C(\C)Cl
    ·	1.2	?	12.6%	·	0.689	1.5
Cc1nn(-c2ccccc2)c(C)c1NC(=O)COC(=O)c1cccc(OC(F)F)c1
    i	3.0	2.0	-7.2%	0.1	0.674	2.8
C#CCNC(=O)C[C@@H]1C[C@@]2(C(=O)OC)CC(C)(C)CC=C2N(Cc2cccc3ccccc23)C1=O
    i	·	·	·	7.9	·	-0.2
O=S(=O)(N/N=C\C=C\c1ccccc1)c1ccc(Cl)cc1
    ·	·	1.2	3.2%	·	·	1.7
CC(C)C[C@H]1CN([C@@H](CC(C)C)CN2CCC[C@@H]2CN2C(=O)C(=O)NC[C@@H]2Cc2ccccc2)C(=O)C(=O)N1CC1CCCCC1
    i	·	·	-2.2%	-1.8	·	-3.1
COC(=O)C1=C(Nc2ccc(C)cc2)C=C(C)C(C(=O)OC)C1c1ccc(F)cc1 (stereo unspecified)
    ·	0.6	2.0	13.4%	·	0.761	-3.4
CC(C)N(C(=O)COC(=O)c1ccc([N+](=O)[O-])cc1)c1ccccc1
    i	1.4	-2.9	?	3.8	0.671	4.4
CC1CCCN(Cc2c(O)ccc3c(=O)c(-c4ccc(Cl)cc4)coc23)C1 (stereo unspecified)
    i	-228.5	-4.4	0.4%	-20.2	0.667	-3.4
COc1ccccc1N1CCN(CC(=O)Nc2ccccc2C(=O)NC(C)c2ccccc2)CC1 (stereo unspecified)
    i	0.4	·	26.1%	5.6	0.715	2.6
O=C(NCc1ccc2c(c1)OCO2)c1ccc(CSCc2cccc(Cl)c2)o1
    i	3.7	-2.3	·	-4.5	0.703	2.0
Cc1ccc(-n2c(NN)nc3ccccc3c2=O)c(C)c1
    i	6.1	1.0	·	-0.7	0.665	0.7
OCCNCc1cccc(Br)c1
    i	0.3	0.1	-0.5%	-1.7	0.683	4.6
CCOc1ccc2nc(Cl)c(C3CC(c4ccco4)=NN3S(C)(=O)=O)cc2c1 (stereo unspecified)
    i	-2.1	-3.9	·	0.3	0.69	2.0
C/C(CC(=O)Nc1cccc(Cl)c1)=N\NC(=O)Cc1ccc(Cl)cc1
    ·	·	1.7	-0.9%	·	·	3.9
CCOCCCNC(=O)C1c2ccccc2Oc2ccccc21
    i	1.5	2.4	·	-2.3	0.63	0.0
COc1ccccc1N1CCN(C(=O)c2sc3ncn(CC(=O)N4CCC(C)CC4)c(=O)c3c2C)CC1
    i	4.4	5.4	·	-0.5	0.7	-1.1
COCc1cc(=O)[nH]c(N2CCN(c3ccccc3OC)CC2)n1
    i	1.1	2.4	·	2.1	0.695	4.3
CSc1ncccc1C(=O)OCC(=O)Nc1ccc2c(c1)CCC2
    i	-0.5	·	-10.1%	2.3	0.631	-1.0
COC(=O)c1nnn(CC(=O)NC(=O)Nc2ccccc2F)c1C(=O)OC
    i	5.8	6.2	-8.3%	-14.9	0.723	3.6
Oc1cncc(Cc2ccccc2)c1
    i	5.1	-1.6	·	-4.1	0.596	4.0

More results
Every second line gives: FGF22 binding	UCH37 inh	RanGTP-Impb inh	Vif A3G	AF4-AF9 inh	Ecoli growth	HNF4A DNA FP
O=C(NCc1cccnc1)c1sc2cc(Cl)ccc2c1Cl
    ·	3.0	1.4	-6.7%	·	0.686	-4.0
CCOC(=O)C1=CN(Cc2cccc(F)c2)S(=O)(=O)NC1c1ccc(Br)cc1F (stereo unspecified)
    i	1.5	·	0.3%	-3.8	0.7	-1.5
CCN(C(=O)Cc1nc(N)n[nH]1)C1(C(=O)Nc2ccccc2)CCCCC1
    i	-0.4	6.7	-18.1%	-0.4	0.711	-2.2
CC(C)c1ccc(/C=N/NC(=O)c2ccc(-n3cnnn3)cc2)cc1
    i	·	·	1.5%	0.5	·	1.5
Cc1cc(C(=O)N2CCN(c3ncccn3)CC2)c(C)o1
    ·	-0.7	-1.2	0.9%	·	0.726	2.3
COc1ccccc1N1CC(C(=O)Nc2ccccc2N2CCCC2)CC1=O (stereo unspecified)
    i	2.2	-0.6	9.9%	6.3	0.706	-1.0
O=C1CCC[C@@H]2Cc3nc4ccc(O)cc4cc3[C@@H]3CCN1[C@H]23
    i	·	·	·	-10.9	·	-0.9
O=C(O)COCC(=O)N1CCN(C(c2ccccc2)c2ccccc2)CC1
    i	4.1	0.4	-9.3%	-3.1	0.651	0.8
O=C(O)c1ccc2c(c1)ncn2C1CCCCCC1
    ·	-0.9	0.7	-2.9%	·	0.72	-4.5
Cc1ccc(NS(=O)(=O)c2cccc(C(=O)N/N=C/c3ccc4c(c3)OCCO4)c2)c(C)c1
    ·	·	-0.6	-4.9%	·	·	-0.4
O=C(Nc1cccnc1)c1cn(-c2ccccc2)nc1-c1cccs1
    ·	0.0	?	-2.7%	·	0.657	2.5
COc1ccc(C(C)(C)C)cc1NC(=S)NCCN1CCOCC1
    ·	2.4	-2.9	9.0%	·	0.657	3.3

Assay outcomes as filed in PubChem BioAssay.
